HSD17B inhib: qHTS Assay for Inhibitors of HSD17B4, hydroxysteroid (17-beta) dehydrogenase 4. 3-hydroxyacyl-CoA dehydrogenase type-2 (Homo sapiens), Q99714. recombinant HSD17B10, NADH fluorescence kinetic; many of its hits are not listed in these tables. Potency, µM (series often up to 57.1 µM), for the others: at the highest dose activity change, negative = inhibition, usual class: inhibitors. hit rate 7.6% among 75,000; active means well fitted inhibition curve with a large enough effect; inconclusive means small, poorly fitted or top-dose-only effect; inactive means no such curve, though single readings can be large or run the other way;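 further: the protocol describes HADH2 (HSD17B10) and not the HSD17B4 of the title; nearly all actives have a fitted effect of over 70% in size; most hits overshoot -100% by far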
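20 nM HADH2, pH 9.0 Tris/Tween; cpd preinc 15 min RT; start w/ 1 mM NAD+ + 90 uM b-hydroxybutyryl-CoA; kinetic fluor ex360/em450 q30s x 4 min; delta last-first.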
The depositor's hits bear a star; ? = inconclusive; & = joins results of further samples; [ ] = dose if it differs, or a comment. On the % scale 0 is the no-effect control and ±100 the full control effect; potency means the concentration at half of the fitted maximal effect. This is a subset. The share of hits here may be higher or lower than overall.

SMILES	HSD17B inhib
C/C=C\C1=C(CO)[C@H](O)[C@H]2O[C@H]2[C@H]1O	-1.6%[11.4 µM]
Cc1ccc2[nH]c(=O)c(N3CCOCC3)c(-c3ccccc3)c2c1	?
CCC(C)n1c(=O)c(C(=O)Nc2ccccc2S(N)(=O)=O)c(O)c2ccccc21 (stereo not drawn)	-9.9%
CCCCc1cc2c(c(NC(=O)CC)n1)c(=O)oc1ccccc12	31.6µM*
O=C(c1ccc(Cl)cc1)C1CCN(C(=O)NC2CCCCC2)CC1	4.8%
CC(C)(C)NC(=O)COC(=O)c1ccc(S(=O)(=O)N2CCCCCC2)cc1	-2.8%
CN(Cc1nc2ccccc2n1C)S(C)(=O)=O	6.1%
O=C(COc1ncnc2ccccc12)c1ccc2c(c1)OCCO2	-15.2%
Cn1cnnc1SCC(=O)n1c2ccccc2c2ccccc21	?
Cc1ccc(-n2[nH]c(C)c(C=Nc3ccc(C)cn3)c2=O)cc1	-3.4%
CCn1c(SCC(=O)c2cc(C)n(CC3CCCO3)c2C)nc2ccccc21 (stereo not drawn)	-3.5%
CCNc1ncc2nc(-c3cn(C)c4ccccc34)c(=O)n(Cc3ccc(F)cc3)c2n1	-19.1%
O=C(O)c1cccc(Nc2nc(N3CCOCC3)nc(N3CCOCC3)n2)c1	-0.3%
COc1ccccc1CN1CC[C@@]2(CCCN(S(C)(=O)=O)C2)C1	5.4%
CC(C)Oc1ccc(C2C(C(=O)c3ccco3)=C(O)C(=O)N2CCCN(C)C)cc1 (stereo not drawn)	-4.8%
O=C(CN1CCN(c2ccccc2)CC1)Nc1cccc(C(F)(F)F)c1	-5.4%
Clc1nccc2c1ccc1ccccc12	-17.2%
Cc1ccc2c(c1)CC1(CN2C)C(=O)OC2(CCCCC2)OC1=O	-3.3%
Cn1c(CSc2nc3ccccc3s2)nnc1SCC(=O)NCCN1CCOCC1	10.6%
Cc1ccc(C(=O)Cn2c3c(sc2=N)CCCC3)cc1	?

Look-ups from the entries so far.
Reading for `C/C=C\C1=C(CO)[C@H](O)[C@H]2O[C@H]2[C@H]1O` under HSD17B inhib: -1.6%[11.4 µM]
Reading for `O=C(c1ccc(Cl)cc1)C1CCN(C(=O)NC2CCCCC2)CC1` under HSD17B inhib: 4.8%

Following part:
SMILES	HSD17B inhib
CC(c1ccccc1)C(CC(=O)O)C(=O)NC1CCCCC1 (stereo not drawn)	7.3%
Clc1ccc(-c2nn3c(-c4ccccn4)nnc3s2)c(Cl)c1	11.6%
O=C(O)c1ccc2c(c1)ncn2C1CCCCCC1	-11.7%
COC(=O)[C@@]1(Cc2ccc(OC)cc2)[C@H]2c3cc(C(=O)N4CCCC4)n(CCc4ccccn4)c3C[C@H]2CN1C(=O)c1ccccc1	-7.0%
COC(=O)c1cc2sccc2n1CC(=O)N1CCCc2ccccc21	-8.0%
O=C1CNC(=O)c2c(nc3n2CCC3)N1	8.1%
O=c1c2c3nc4ccccc4nc3n(CCN3CCOCC3)c2ncn1CCN1CCOCC1	?
CC(C)[C@H]1CC[C@@H](C)C[C@H]1O	19.7%
COC(=O)CSc1nnc(-c2cccnc2)n1-c1cccc(OC)c1	-4.1%
Cc1c(Cl)cccc1NC(=O)CSCc1cc(=O)[nH][nH]1	-13.0%
Cc1ccc(S(=O)(=O)C(C#N)c2nc3ccccc3nc2N2CCCC2)cc1C (stereo not drawn)	31.6µM*
CCn1c(COc2ccc(C)cc2)nnc1SCC(=O)C(C)(C)C	4.5%
O=C(CSc1ccccc1)Nc1cccnc1	5.7%
CC1=C(C)CS(=O)N(c2ccc(S(N)(=O)=O)cc2)C1 (stereo not drawn)	-6.0%
CC(C)=CCNc1ncnc2nc[nH]c12	10.7%[11.4 µM]
O=[N+]([O-])c1ccc(S(=O)(=O)Cc2ccccc2)c([N+](=O)[O-])c1	-18.7%[11.4 µM]
CCCN(CCC)C(=O)SCC	2.5%
Cn1c(=O)c2c(nc(Br)n2CCSc2nnnn2-c2ccccc2)n(C)c1=O	-2.2%
COCc1[nH]nc2c1C(c1ccc(OC)c(OC)c1)C(C#N)=C(N)O2 (stereo not drawn)	5.7%
O=C(NCc1ccccc1)[C@@H]1C[C@H]1[C@@H](NP(=O)(c1ccccc1)c1ccccc1)c1ccccc1	2.3%
COc1ccc(S(=O)(=O)N2CN(Cc3ccco3)c3nc4ccccc4nc32)cc1	25.1µM*
Cc1ccnc(NC(=O)c2ccc(NC(=O)c3ccco3)cc2)c1	-8.4%
CC(=O)NC(C(=O)NCC(N)=O)C(C)C (stereo not drawn)	6.3%
Cn1c(=O)c2c(nc(OCc3ccccc3)n2C)n(C)c1=O	12.5%
O=C(CN1C(=O)CSc2ccccc21)Nc1ccccc1C(=O)N1CCOCC1	2.6%
CCOc1ccc(CCNC(=O)C2CCCN(C(=O)N(C)C)C2)cc1OCC (stereo not drawn)	5.6%
COc1ccccc1N1CCN(C(=O)CN(Cc2ccccc2)S(C)(=O)=O)CC1	4.9%
CCOC(=O)N1CCN(c2c(-c3ccc(C)cc3)c(=O)c2=O)CC1	-8.7%
O=C(CN(c1ccc(F)cc1)S(=O)(=O)c1ccccc1)NCc1ccco1	-7.0%
COC(=O)N1CCC2(CCN(Cc3cc(C(F)(F)F)cc(C(F)(F)F)c3)CC2)CC1	-11.4%
CC1=Nn2c(nnc2C2CCCCC2)SC1	-1.6%
CCOc1ccc(-n2c(SCC(N)=O)nc3c(c2=O)SCC3)cc1	-3.9%
CCCCS(=O)(=O)C(=C1Nc2ccccc2N1)S(=O)(=O)CCCC	-5.5%
O=C(Nc1nnc(-c2ccccc2)s1)c1ccc(Cl)c(S(=O)(=O)N2CCOCC2)c1	5.2%
COC(=O)c1[nH]c2ccccc2c1NC(=O)CN1CCN(c2cccc(Cl)c2)CC1	-1.8%
O=C1c2ccccc2C(=O)N1CCCCSc1nnnn1-c1ccccc1	-0.8%
Cc1ccccc1OCC(=O)N(Cc1ccc(N(C)C)cc1)C1CCS(=O)(=O)C1 (stereo not drawn)	0.9%
O=C(c1ccc2c(c1)OCO2)N(c1ccc(F)cc1)C1C=CS(=O)(=O)C1 (stereo not drawn)	-4.7%
O=S1(=O)CC(NCc2ccccc2)C(Nc2ccc(Cl)cc2)C1 (stereo not drawn)	2.3%
CCOc1ccc(NC(=O)CCNS(=O)(=O)c2ccc3c(c2)c(=O)n(C)c(=O)n3C)cc1	3.4%
Cn1c(=O)c2c(ncn2CCN(CCO)Cc2ccccc2)n(C)c1=O	-3.5%
CCN1C(=O)/C(=C2\SC(=S)N(CCCOC)C2=O)c2ccccc21	2.5%
Cc1ccc(NCc2nnc(SCCN3CCCCC3)n2CC2CCCO2)c(C)c1 (stereo not drawn)	17.6%
COCCNC(=O)[C@@]1(Cc2ccccc2)C=C[C@@H](C)N1C(=O)OC	10.7%
Cc1cccc(NC(=O)CN(C)S(=O)(=O)c2ccccc2)n1	-1.6%
C[Si](C)(C)C#Cc1ccccc1NC(=S)Nc1ccccc1	-20.7%
CCN(CC)C(=O)CN1C(=O)C2(OCC(C)(c3ccccc3)CO2)c2ccccc21 (stereo not drawn)	8.8%
COc1ccc(S(=O)(=O)N2CCCCC2C(=O)O)cc1OC (stereo not drawn)	-1.4%
CCc1nc(N2CCN(C(=O)c3ccco3)CC2)c2oc3ccccc3c2n1	-25.3%
CC1CC(C)CN(S(=O)(=O)c2ccc(C(=O)N3CCN(c4ccccc4)CC3)cc2)C1 (stereo not drawn)	4.5%
N#C/C(=C\c1cccs1)Sc1nc2ccccc2s1	-25.2%
CCc1ccccc1NC(=O)CSc1nnc([C@H](CCSC)NC(=O)OC(C)(C)C)o1	4.9%
Cc1cc(N(C(=O)c2ccco2)C(C(=O)NC2CCCCC2)c2ccccc2)ccc1-n1cnnn1 (stereo not drawn)	9.2%
O=C(CCSc1nc(-c2ccco2)cc(C(F)(F)F)n1)NCCc1ccccc1	0.9%
CC(=O)N1CCc2cc(S(=O)(=O)NC(C(=O)Nc3nc(C)cs3)C(C)C)ccc21 (stereo not drawn)	8.7%
Cc1ccc(Cn2c(=O)c3ccccc3n3c(CCC(=O)O)nnc23)cc1	3.6%
O=C(O)CCCc1nc2ccccc2s1	-19.2%
COc1ccc(CNC(=O)CN(C(=O)c2ccc(CN3CCOCC3)o2)C2CCCC2)cc1	-2.3%
O=C(Nc1cccc2ccccc12)c1ccc(Br)o1	-12.5%
Cc1ccc(C(c2nnnn2CC2CCCO2)N2CCN(c3cccc(C)c3C)CC2)cc1 (stereo not drawn)	21.9%

A stretch taken from the entries so far:
SMILES	HSD17B inhib
Cc1ccc(NCc2nnc(SCCN3CCCCC3)n2CC2CCCO2)c(C)c1 (stereo not drawn)	17.6%
COCCNC(=O)[C@@]1(Cc2ccccc2)C=C[C@@H](C)N1C(=O)OC	10.7%
Cc1cccc(NC(=O)CN(C)S(=O)(=O)c2ccccc2)n1	-1.6%
C[Si](C)(C)C#Cc1ccccc1NC(=S)Nc1ccccc1	-20.7%
CCN(CC)C(=O)CN1C(=O)C2(OCC(C)(c3ccccc3)CO2)c2ccccc21 (stereo not drawn)	8.8%
COc1ccc(S(=O)(=O)N2CCCCC2C(=O)O)cc1OC (stereo not drawn)	-1.4%
CCc1nc(N2CCN(C(=O)c3ccco3)CC2)c2oc3ccccc3c2n1	-25.3%

Shown as a markdown table: part of the list above.
| SMILES | HSD17B inhib |
| --- | --- |
| Cc1ccc(C(c2nnnn2CC2CCCO2)N2CCN(c3cccc(C)c3C)CC2)cc1 (stereo not drawn) | 21.9% |
| COc1ccc(S(=O)(=O)N2CCCCC2C(=O)O)cc1OC (stereo not drawn) | -1.4% |

(more compounds)
SMILES	HSD17B inhib
COC(=O)C1CCN(C(=O)c2ccccc2NC(C)=O)CC1	-0.9%
COc1ccc2c(=O)cc(-c3ccc(O)cc3)oc2c1	31.6µM*
Cc1cccc(-n2c(N)cc(=O)[nH]c2=S)c1	-11.4%
Cn1cnc2c1c(=O)n(Cc1cccc(Br)c1)c(=O)n2C	1.4%
c1cncc(CNc2ncnc3ccc(-c4cccnc4)cc23)c1	25.1µM*
CCN1CCN(c2cc(=O)n(C3CCCCC3)c(=O)[nH]2)CC1	2.8%
O=C(c1ccccc1)N1CCN(c2ccccc2F)CC1	9.8%
Cc1csc(NC(=O)C2CCCN2C(=O)OCC(C)C)n1 (stereo not drawn)	3.8%
Cn1c(Cn2cnc3ccccc32)nnc1SCC(=O)CC(=O)Nc1ccccc1	-3.7%
COc1ccc(NC(C)=O)cc1NC(=O)CSc1nc2ncccc2[nH]1	0.3%
O=S(=O)(Nc1cccc(C(F)(F)F)c1)c1cccnc1	5.9%
O=C(OCc1ccccc1F)c1ccc2c(c1)OCCO2	-20.6%
O=C(Cn1cnc2c(cnn2-c2ccccc2Cl)c1=O)N1CCc2ccccc21	-0.3%
O=C(O)c1c(F)c(F)cc2ccccc12	-4.7%
CCn1c(COc2ccc3c(c2)CCCC3)nnc1SCC(=O)Nc1nccs1	5.5%
CCn1c(CCCNC(=O)c2cccs2)nc2ccccc21	12.6%
O=C1CCn2nc(-c3ccc(Cl)cc3)cc2N1	5.3%
Oc1[nH]c2ccccc2c1OCc1ccncc1	1.2%
CC1CCN(c2nc3c(c(=O)[nH]c(=O)n3C)n2Cc2ccccc2Cl)CC1	?
Cc1cc(=O)[nH]c(=S)[nH]1	-8.8%&-1.4%
COC(=O)c1ccc(C(NC(=O)OCc2ccccc2)/C(=C/[C@@H](C)C(=O)NCc2ccc(C)o2)c2cccnc2)cc1 (stereo partly drawn)	14.8%
Clc1ccc(Nc2nc(NCCN3CCOCC3)nc(N3CCOCC3)n2)cc1	-2.3%
CCC(=O)N(Cc1cc2c(C)cc(C)cc2[nH]c1=O)C1CCCCC1	?
CC(=O)OC1CC[C@]2(C)C(=CCC3C4CCC(C(C)CCCC(C)C)[C@]4(C)CCC32)C1 (stereo partly drawn)	1.4%
Cc1cc(NCc2ccccc2Cl)n2nnnc2n1	25.1µM*
Cn1c(C(=O)N2CCN(Cc3ccccc3)CC2)cc2c(=O)n(C)c3ccccc3c21	?
CC(C)N(C(=O)CSc1nn2c(=O)c(C(C)(C)C)nnc2s1)c1ccccc1	0.1%
Cc1csc(C2=C(O)CN(CCc3ccccc3)C2=N)n1	-22.0%
Cc1ccc(C(=O)Oc2ccc3c(c2)ncn3C)cc1	0.9%
Nc1nc(-c2ccc(Br)s2)c(Br)s1	-11.7%
Cc1cc(C(=O)O)sc1C	-6.1%
COc1ccc2c(-c3ccccc3)cc(N3CCOCC3)nc2c1	31.6µM*
O=C(Nc1nc2ccccc2[nH]1)C1CC(=O)N(c2ccc3c(c2)OCCO3)C1 (stereo not drawn)	-4.7%
NC(=O)c1cccc(N)c1	31.6µM*
Cn1c(=O)[nH]c(=O)c2c1nc(N1CCOCC1)n2CC(O)COc1ccc2ccccc2c1 (stereo not drawn)	7.0%
COc1ccc(S(=O)(=O)N2CCN(C(=O)c3cccs3)CC2)cc1OC	3.98µM*
O=c1c2nnn(Cc3ccccc3)c2ncn1C/C=C/c1ccccc1	6.2%
Cn1c(CN2CCOCC2)nnc1SCC(=O)NC1CCCCC1	-3.9%
O=C(Nc1ccc2c(c1)OCO2)Nc1ccc(Br)cn1	-1.5%
O=C(NC1CCCC1)C1CC(=O)N(CCc2ccccc2)C1 (stereo not drawn)	-23.0%
COC(=O)c1ccccc1S(=O)(=O)N(CCCN1CCOCC1)Cc1cccs1	-11.3%
Cc1cc(C)cc(OCCCC(=O)O)c1	5.4%
CCn1cc(Br)c(C(=O)Nc2ccc(F)c(Cl)c2)n1	-6.3%
COc1ccc2nc(SCC(N)=O)[nH]c2c1	2.0%
Cc1ccc(C(=O)NCCNC(=O)CN2CCCC2)cc1	-4.2%
CC(C)c1[nH]nc2c1C(c1ccc(OC(=O)c3ccco3)cc1)C(C#N)=C(N)O2 (stereo not drawn)	-8.2%
O=C(Nc1ccc2c(c1)oc1ccccc12)c1cccnc1	25.1µM*
COc1cc(OC)cc(-c2nc(-c3ccccc3OC)no2)c1	5.2%
